Ecoli rRNA inh = inhibitors of bacterial rRNA selective over humanized ribosomes. E. coli WT GFP vs humanized-ribosome RFP mutants, fluorescence, 24 h; stronger effect = lower value; DMSO median 0, no signal -100. GFP signal change (wild-type ribosome), % (concentration not given with the values). actives 1.6% (n = 350,000). AID 720706;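 active means significant combined selectivity score with lowered wild-type GFP, culture density cut under 30%, mutant RFP and density less affected; inactive means any of these conditions unmet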; further: one replicate is shown; some compounds called inactive have numbers as strong as hits
ALR H2O2 inh = blocks human ALR sulfhydryl oxidase activity | actives 3.8% (n = 290,000) | AID 485317 | inhibition, % (test concentration not listed) | P55789 | purified ALR, DTT oxidation, H2O2 HRP-luminol luminescence;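 active means mean and each replicate at 75% or more; inconclusive means only one of the two met; inactive means neither met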;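 further: stock transfer was 7.5 nL into about 7.5 µL; 0% = neutral wells and 100% = wells with inactivated enzyme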
Target sequence (P55789 whole entry, looked up): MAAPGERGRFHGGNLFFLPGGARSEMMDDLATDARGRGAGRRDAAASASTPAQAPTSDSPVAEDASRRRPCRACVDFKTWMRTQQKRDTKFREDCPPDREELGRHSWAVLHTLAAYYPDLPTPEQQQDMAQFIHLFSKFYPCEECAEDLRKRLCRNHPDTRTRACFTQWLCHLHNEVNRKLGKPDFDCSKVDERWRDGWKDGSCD
HNF4A DNA FP = change in binding of human HNF4 alpha to DNA. HNF4a-FITC DNA binding, fluorescence polarization, 1 h. activity change, % at 10 µM. actives 0.3% (n = 360,000). AID 1224865; in the data active means activity change above about 30%, passing the limit was not always enough;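 further: controls were the assay level and a saturating level of protein; the project sought stronger binding though the title names inhibitors; some compounds called inactive have numbers as strong as hits; positive values seem to mean higher polarization but the record does not say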
Target sequence (P41235 whole entry, looked up): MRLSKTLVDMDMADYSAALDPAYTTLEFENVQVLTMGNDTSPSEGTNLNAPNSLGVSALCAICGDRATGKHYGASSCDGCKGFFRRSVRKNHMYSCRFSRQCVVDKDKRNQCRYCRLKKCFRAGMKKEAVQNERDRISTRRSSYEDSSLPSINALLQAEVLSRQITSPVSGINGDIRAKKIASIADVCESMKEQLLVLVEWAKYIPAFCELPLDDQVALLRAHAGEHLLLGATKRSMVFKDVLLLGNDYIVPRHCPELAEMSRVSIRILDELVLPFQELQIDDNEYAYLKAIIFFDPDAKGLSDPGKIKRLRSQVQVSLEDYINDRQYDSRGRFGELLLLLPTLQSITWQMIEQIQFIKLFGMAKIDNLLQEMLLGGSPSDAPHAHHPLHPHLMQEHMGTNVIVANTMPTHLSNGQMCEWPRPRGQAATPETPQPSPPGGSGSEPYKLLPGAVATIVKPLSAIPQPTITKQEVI
Vif A3G = HIV-1 Vif–A3G interaction blockers – biochemical, TR-FRET, GST-Vif 1-94, biotin-A3G peptide, dose response retest, primary screen (AID 1117319). TR-FRET GST-Vif / biotin-A3G peptide binding; higher % means a stronger effect; test concentration not given here; strong numbers were not always called active. inhibition, %, or IC50 in µM where a hit was titrated. actives 0.57% (n = 260,000);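 active means above the screen mean plus three standard deviations and confirmed in dose response; inconclusive means results disagree or hit not tested in dose response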;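 further: Vif residues 1-94 fused to GST binding biotinylated APOBEC3G peptide 110-148; 0% = full assay without inhibitor and 100% = GST in place of GST-Vif; retest series ran down from 100 µM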
AF4-AF9 inh = MLL-AF4/AF9 protein interaction inhibition; P42568; actives 0.47% (n = 350,000); inhibition, % at 10 µM; AlphaScreen, biotin-AF4 peptide binding to FLAG-AF9;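 active means every replicate reaching a set inhibition limit, whatever the replicate mean, cut at about 25% in these data; inconclusive means mean inhibition reaches that limit but some replicates miss it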;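 further: 0% = plate neutral control median and 100% = total signal loss; the record names both 10 and 1 µM as test concentration; the first replicate is given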
E coli growth = blocks Escherichia coli growth; OD600, 23 h; stronger effect = lower value; OD600 absorbance (test concentration not listed); actives 0.21% (n = 330,000); AID 1053175;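 active means OD600 absorbance below the run mean of sample wells minus 3.6 SD, in any replicate, cut at about 0.56 in these data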;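 further: stock transfer was 300 nL into about 60 µL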
FGF22 binding = binders of recombinant human FGF22 by thermal shift | calls only at 9.99 µM | AID 651658 | SYPRO orange fluorescence; percent of sucrose octasulfate shift, DMSO zero | actives 1.5% (n = 340,000);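 active means melting point raised past a set limit in the mean and every replicate; inconclusive means no clear call; three in four hits are not shown here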
Target sequence (Q9HCT0 whole entry, looked up): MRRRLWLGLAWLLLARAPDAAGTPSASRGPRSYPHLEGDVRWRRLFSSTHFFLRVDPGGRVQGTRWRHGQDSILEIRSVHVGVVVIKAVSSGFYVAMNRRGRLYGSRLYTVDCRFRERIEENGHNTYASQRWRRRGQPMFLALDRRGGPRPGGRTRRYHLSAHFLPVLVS
Ecoli rRNA inh OD600 = also measured in Ecoli rRNA inh; calls as there; OD600 change, %; measured here: OD600 growth;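 optical density of the mix in the first replicate; 0 = DMSO median and -100 = no signal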
Ecoli rRNA inh RFP = further read-out of Ecoli rRNA inh, marked with its call; RFP signal change, %; measured here: RFP humanized mutant strains;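 first replicate; 0 = DMSO median and -100 = no signal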
The depositor's hits bear a star; i = inactive; ? = inconclusive; / = not tested or not shown; & = joins results of further samples.

SMILES | Ecoli rRNA inh | Ecoli rRNA inh OD600 | Ecoli rRNA inh RFP | ALR H2O2 inh | HNF4A DNA FP | Vif A3G | AF4-AF9 inh | E coli growth | FGF22 binding
N#C[C@H]1[C@H](c2ccc(C#Cc3ccc(F)cc3)cc2)[C@@H](CO)N1C(=O)C1CCCC1 | 1 | 0 | -0.4 | / | / | / | 1.4 | / | i
O=C(NCc1cccnc1)C1CC(=O)N(c2ccc(Cl)cc2)C1 (centres undefined) | / | / | / | -13 | -5.1 | ? | / | 0.67 | /
CC(NC(=O)Cc1ccc(Br)cc1)c1ccccc1 (centres undefined) | 0 | 0 | -1.7 | -18 | 5.1 | / | -17 | 0.66 | i
Cc1ccc(-n2c(=O)[nH]c3c(oc4ccccc43)c2=O)cc1 | 4 | 6 | 1.5 | 0 | -3.9 | -3% | -4.6 | 0.71 | i
O=C(Nc1ccccc1C(=O)OC1CCOC1=O)c1ccco1 (centres undefined) | / | / | / | / | -1.7 | 17% | / | 0.7 | /
C=CCNC(=S)NNC(=O)c1csc(C)c1C | / | / | / | 40 | -3.2 | / | / | 0.72 | /
O=C(CCN1CCCCC1)N[C@H]1CC[C@H](CCNC(=O)c2cc(Cl)cc(Cl)c2)O[C@@H]1CO | -1 | -1 | 3.4 | / | / | / | 2.1 | / | i
C[C@@H]1CN([C@@H](C)CO)C(=O)c2cc(NS(=O)(=O)c3cn(C)cn3)ccc2O[C@@H](C)CCCCO[C@@H]1CN(C)S(=O)(=O)c1ccccc1 | 5 | 9 | -0.4 | / | / | / | 0.0 | / | i
O=c1nc(N2CCOCC2)ccn1-c1nc(-c2ccccc2)sc1-c1ccccc1 | 3 | -8 | 2.0 | -3 | 0.0 | / | 6.5 | 0.69 | i
COc1ccccc1CNC(=O)C/C(C)=N/NC(=O)Cc1ccc(Cl)cc1 | 4 | 7 | 0.9 | 3 | 4.3 | / | 0.3 | / | i
O=C(NC1CCCCC1)c1ccc(Br)o1 | / | / | / | -1 | 0.1 | -2% | / | 0.77 | /
COc1ccc(NC(=O)Nc2ccc3c(c2)C(=O)N([C@H](C)CO)C[C@H](C)[C@@H](CN(C)C(=O)Nc2ccccc2)O3)cc1 | -3&-3 | 2&4 | 0.4&-1.6 | / | -1.8 | 4% | -1.8&-4.2 | 0.7 | i
C[C@H](CO)N1C[C@H](C)[C@H](CN(C)C(=O)Nc2ccc(C(F)(F)F)cc2)OCCCC[C@H](C)Oc2ccc(NS(=O)(=O)c3ccc(Cl)cc3)cc2C1=O | 3 | 0 | 0.1 | / | / | / | -1.8 | / | i
Cc1cccc(C)c1NC(=O)C1(N(Cc2ccco2)C(=O)c2ccccn2)CCCC1 | / | / | / | 0 | 1.4 | 12% | / | 0.69 | /
O=c1c2[nH]c3ccc(F)cc3c2ncn1Cc1ccncc1 | 8 | 10 | 5.2 | -4 | 0.7 | ? | -2.8 | 0.67 | i
O=C1Cc2ccccc2N1c1ccccc1 | / | / | / | -9 | -1.1 | -8% | / | 0.72 | /
COC(=O)N/N=C/c1ccc(-c2ccc(Cl)c(Cl)c2)o1 | -10 | -3 | -6.8 | -2 | -1.5 | 1% | 9.3 | / | i
CCCCc1sc(-c2c(C#N)c(N)nc3c2CCCCC3)cc1[N+](=O)[O-] | / | / | / | -2 | 2.3 | -2% | / | 0.71 | /
C[C@@H]1CN([C@H](C)CO)C(=O)CCCn2nncc2CO[C@H]1CN(C)Cc1ccc(C(=O)Nc2ccccc2N)cc1 | -1 | 7 | 0.5 | / | / | / | 4.2 | / | i
Cc1nnc(SCC(=O)N(Cc2ccccc2)C(C)(C)C)[nH]c1=O | -4 | -2 | -4.2 | -3 | 0.1 | / | -2.3 | 0.67 | i
COc1ccc(C[C@@H]2CN3C(=NC[C@@H]3C)N2C[C@H](C)NC(=O)CCC2CCCCC2)cc1 | -1 | -12 | 2.3 | / | -1.4 | -5% | -2.2 | / | i
COCCOc1ccc(C(F)(F)F)cc1NC(=O)COC(=O)c1cc[n+]([O-])cc1 | 2 | 12 | 2.2 | -2 | 0.0 | -2% | -12 | 0.73 | i
Cc1cc2cc(C#N)c(SCC(=O)Nc3nonc3C)nc2cc1C | 7 | 8 | -0.1 | 14 | 8.3 | / | 0.0 | 0.69 | i
CCOC(=O)c1[nH]c(C)c(C(=O)OCC(=O)N(CC)C2CCS(=O)(=O)C2)c1C (centres undefined) | / | / | / | -4 | -4.1 | 0% | / | 0.8 | /
C[C@H]1CN([C@@H](C)CO)C(=O)c2cc(C#CC3CC3)cnc2O[C@H]1CN(C)Cc1cccc(C(=O)O)c1 | 1 | 0 | 0.7 | / | / | / | -3.0 | / | i
SMILES | Ecoli rRNA inh | Ecoli rRNA inh OD600 | Ecoli rRNA inh RFP | ALR H2O2 inh | HNF4A DNA FP | Vif A3G | AF4-AF9 inh | E coli growth | FGF22 binding
O=C(c1ccco1)N1N=C(c2ccccc2)CC1c1ccc2nccnc2c1 (centres undefined) | 3 | 10 | -2.5 | -13 | 3.5 | 2% | 8.4 | 0.71 | i
Cc1cccc(C)c1NC(=S)N1CC(C)OC(C)C1 (centres undefined) | 2 | 6 | -2.5 | 9 | 4.6 | / | -0.1 | 0.7 | i
O=C(C[C@@H]1CC[C@H](NS(=O)(=O)c2cccc(F)c2)[C@@H](CO)O1)NCc1ccc2c(c1)OCO2 | -2 | -3 | 0.2 | / | / | / | 4.3 | / | i
COCC(=O)N1C[C@H]2[C@@H](c3ccccc31)[C@@H](CO)N2C(=O)C1CCCCC1 | 0 | 10 | 0.0 | / | / | / | -1.5 | / | i
COCC#Cc1ccc2c(c1)O[C@@H](CN(C)C(=O)CN(C)C)[C@@H](C)CN([C@H](C)CO)S2(=O)=O | 1 | 0 | -2.8 | / | / | / | -0.9 | / | i
CC(=O)N1CCN2C(=O)C1CCCC(=O)c1cc(C(C)C)ccc12 (centres undefined) | / | / | / | -34 | -1.2 | 18% | -0.7 | 0.76 | /
NC(=O)C1Cc2ccccc2CN1C(=O)c1cc(C2CC2)nn1-c1ccccc1 (centres undefined) | -21* | -15* | 1.4* | -2 | 2.3 | / | 0.7 | 0.69 | i
CC(C)CCOc1cccc(OCC(=O)O)c1 | 1 | 1 | -1.4 | / | 2.5 | -8% | 2.5 | 0.64 | i
CCC(CC)NC(=O)c1ccc(Cl)cc1 | / | / | / | 20 | 2.0 | / | / | 0.67 | /
CCCC#Cc1cnc2c(c1)C(=O)N([C@@H](C)CO)C[C@@H](C)[C@H](CN(C)C(=O)C1CCOCC1)O2 | 1 | -1 | -1.2 | / | / | / | -5.5 | / | i
CCOC(=O)c1c(-c2ccc(F)cc2)csc1NC(=O)CCN1C(=O)c2ccccc2C1=O | / | / | / | 1 | 0.5 | -26% | / | 0.71 | /
CCC(C)(C)NC(=O)C(c1ccc(C)cc1)N(Cc1cccnc1)C(=O)c1csnn1 (centres undefined) | / | / | / | -3 | -0.9 | -9% | / | 0.71 | /
CCNC(=S)N(Cc1cc2c(C)ccc(C)c2[nH]c1=O)C1CCCC1 | -19 | -8 | 8.7 | 1 | -1.2 | -4% | -0.2 | 0.67 | /
Cc1nnc(SCC(=O)Nc2ccc([N+](=O)[O-])cc2)n1C | 4 | 7 | -0.9 | -6 | 2.8 | -8% | 1.4 | 0.68 | i
Cc1cc(Cl)c2oc(C(=O)N(C)Cc3cc(C)[nH]n3)c(C)c2c1 | -55 | -71 | -14 | -2 | -3.5 | / | 1.1 | 0.68 | i
COc1ccc(Cl)cc1NC(=O)COC(=O)C1CC(=O)N(Cc2ccccc2)C1 (centres undefined) | -6 | -12 | 1.6 | / | -1.2 | / | -0.8 | 0.67 | i
Cc1ccc(NC(=O)CCNC(=O)c2ccco2)cc1Cl | 0 | -20 | 44 | 2 | -1.3 | / | -0.8 | 0.55 | i
Cc1cccc(C(=O)OCC(=O)NC(=O)Cc2ccccc2)c1O | 5 | 6 | -2.9 | -1 | -1.4 | -3% | -14 | 0.71 | i
Cc1noc(C)c1NC(=O)N(C)C[C@H]1Oc2ncc(C#CCN(C)C)cc2C(=O)N([C@H](C)CO)C[C@H]1C | 6 | 9 | -2.5 | / | / | / | -0.8 | / | i
Cc1nc(-c2cccnc2)sc1C(=O)Nc1cccc(C(F)(F)F)c1 | / | / | / | -8 | 0.5 | -2% | / | 0.64 | /
O=C(Nc1cccc(Cl)c1)c1ccncc1 | / | / | / | -3 | 1.5 | -2% | / | 0.71 | /
O=[N+]([O-])c1cccc(S(=O)(=O)NC2CC3CCC2C3)c1 (centres undefined) | 5 | 3 | -1.5 | -13 | -0.4 | / | 5.2 | 0.66 | i
CCS(=O)(=O)N1Cc2ccccc2CC1C(=O)Nc1cccc(OC)c1 (centres undefined) | 10 | 23 | 0.4 | / | 5.4 | -3% | -0.8 | 0.67 | i
O=C(Nc1ccc(F)cc1)C1CCC(N2C(=O)c3ccccc3C2=O)CC1 (centres undefined) | / | / | / | -4 | -1.3 | 5% | / | 0.66 | /
O=C(N[C@H]1CC[C@H](CC(=O)N2CCOCC2)O[C@@H]1CO)c1cccc(F)c1 | 1 | -1 | -1.1 | / | / | / | -1.7 | / | i
SMILES | Ecoli rRNA inh | Ecoli rRNA inh OD600 | Ecoli rRNA inh RFP | ALR H2O2 inh | HNF4A DNA FP | Vif A3G | AF4-AF9 inh | E coli growth | FGF22 binding
COCC(=O)N1CC[C@H]2[C@@H]1c1cc(-c3ccc(F)cc3)ccc1N(C)[C@H]2CO | -5 | -20 | -0.6 | / | / | / | 2.9 | / | i
COC1=C/C(=C/c2c(O)c(C#N)c3ccccn23)C=CC1=O | 8 | 7 | 2.2 | 91* | 3.2 | ? | 0.6 | / | i
O=C(COC(=O)c1nc(Cl)ccc1Cl)NNC(=O)c1cccs1 | 3 | 5 | -2.9 | / | 1.1 | -3% | -1.2 | 0.7 | i
O=C1C(Oc2ccccc2)C(c2cccs2)N1Cc1ccc2c(c1)OCO2 (centres undefined) | / | / | / | -1 | 0.2 | 3% | / | 0.69 | /
CCOC(=O)C1CCN(c2nc(-c3ccc(C)cc3)nc3ccccc23)CC1 | -1 | -5 | 1.0 | 39 | -0.9 | -11% | -7.0 | 0.74 | i
CN(C)C(=O)[C@H]1[C@H](CO)[C@H]2Cn3c(ccc(-c4ccccc4)c3=O)[C@@H]1N2C(=O)C1CCCC1 | 0 | 4 | 1.0 | / | / | / | -0.5 | / | i
Cc1ccc(C)c(NC(=O)c2ccc(OC(=O)c3ccco3)cc2)c1 | / | / | / | -3 | -3.3 | -2% | / | 0.71 | /
O=C1NC(c2cc3c(cc2Cl)OCO3)Oc2ccccc21 (centres undefined) | / | / | / | / | 0.5 | 8% | / | 0.72 | /
CC(C)(C)c1ccc(C(=O)NCCOc2ccccc2F)cc1 | -1 | -18 | -2.1 | 1 | 0.6 | 5% | -1.3 | 0.65 | i

In a second layout: 5 of the compounds above.
Screens in order: Ecoli rRNA inh, Ecoli rRNA inh OD600, Ecoli rRNA inh RFP, ALR H2O2 inh, HNF4A DNA FP, Vif A3G, AF4-AF9 inh, E coli growth, FGF22 binding
O=C(COC(=O)c1nc(Cl)ccc1Cl)NNC(=O)c1cccs1
    3, 5, -2.9, /, 1.1, -3%, -1.2, 0.7, i
O=C1C(Oc2ccccc2)C(c2cccs2)N1Cc1ccc2c(c1)OCO2 (centres undefined)
    /, /, /, -1, 0.2, 3%, /, 0.69, /
CCOC(=O)C1CCN(c2nc(-c3ccc(C)cc3)nc3ccccc23)CC1
    -1, -5, 1.0, 39, -0.9, -11%, -7.0, 0.74, i
CN(C)C(=O)[C@H]1[C@H](CO)[C@H]2Cn3c(ccc(-c4ccccc4)c3=O)[C@@H]1N2C(=O)C1CCCC1
    0, 4, 1.0, /, /, /, -0.5, /, i
Cc1ccc(C)c(NC(=O)c2ccc(OC(=O)c3ccco3)cc2)c1
    /, /, /, -3, -3.3, -2%, /, 0.71, /

Only part of the results is shown; rates above refer to the full screens.
